RecA intein inh: Mtb RecA intein splicing inhibitors, primary screen, biochemical, fluorescence, HTS | cell-free RecA intein splicing | inhibition, %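 (about 9 µM by stock and volumes)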 | actives 0.75% (n = 290,000) | AID 2221, 2009; in the data active = inhibition above about 30%; inconclusive = no clear call, values can overlap the other calls;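 also: 0% = vehicle wells and 100% = reference inhibitor control wells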
Target sequence (P9WHJ3 whole entry, looked up): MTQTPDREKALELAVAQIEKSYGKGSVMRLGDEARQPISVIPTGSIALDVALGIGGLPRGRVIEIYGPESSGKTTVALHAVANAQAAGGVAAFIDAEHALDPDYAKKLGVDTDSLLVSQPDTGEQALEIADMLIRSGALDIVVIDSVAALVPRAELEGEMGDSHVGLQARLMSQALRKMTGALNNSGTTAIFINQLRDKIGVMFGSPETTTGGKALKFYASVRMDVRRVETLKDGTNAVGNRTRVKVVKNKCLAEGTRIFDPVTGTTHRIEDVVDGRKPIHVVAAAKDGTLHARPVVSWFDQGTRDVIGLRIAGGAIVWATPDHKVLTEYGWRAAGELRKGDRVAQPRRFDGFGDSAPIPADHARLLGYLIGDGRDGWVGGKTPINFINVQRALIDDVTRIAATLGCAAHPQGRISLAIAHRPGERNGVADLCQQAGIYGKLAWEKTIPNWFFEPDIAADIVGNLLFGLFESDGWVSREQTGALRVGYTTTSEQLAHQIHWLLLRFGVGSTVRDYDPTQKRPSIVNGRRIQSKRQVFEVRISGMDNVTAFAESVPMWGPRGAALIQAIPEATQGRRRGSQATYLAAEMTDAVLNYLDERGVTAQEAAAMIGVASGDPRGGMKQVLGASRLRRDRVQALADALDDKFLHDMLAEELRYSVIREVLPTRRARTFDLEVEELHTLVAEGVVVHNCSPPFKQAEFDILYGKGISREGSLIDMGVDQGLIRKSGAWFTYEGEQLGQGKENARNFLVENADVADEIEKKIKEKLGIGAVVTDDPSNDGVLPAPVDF
Mtb H37Rv: M. tuberculosis H37Rv growth inhibitors, H37Rv strain (AID 1626); M. tuberculosis H37Rv growth inhibition; higher % means a stronger effect; inhibition, % at 10 µM; hits with a dose series show IC50 in µM; actives 0.95% (n = 220,000);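 active = confirmed in a dose series; inconclusive = inhibition above 80% but not taken into the dose series; inactive = below 80% or under 30% at every dose of the series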;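 also: bacteria incubated seven days before Alamar blue readout; 0% = bacteria only wells and 100% = bacteria with antibiotic wells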
YopH inh: YopH tyrosine phosphatase inhibitors, primary screen, biochemical, fluorescence Ex485/Em525. YopH tyrosine phosphatase [Yersinia enterocolitica]. inhibition, %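 (about 10 µM by stock and volumes)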. actives 0.16% (n = 140,000). AID 898, 2007;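 active = inhibition of 50% or more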;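 also: controls were vehicle for no effect and minimum signal wells for full effect; inactives centre near -20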
Mtb bLac sens: beta-lactam sensitization of Mtb H37Rv, H37Rv; M. tuberculosis H37Rv growth with meropenem, percent inhibition; hits of this screen are not shown here; actives 0.27% (n = 330,000); inhibition, % at 25 µM; AID 434955, 2010;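 active = about 74% or more and at least 40 points above the plate without the antibiotic, then above 30% in a dose series; inconclusive = first-round hits that could not be retested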;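 also: growth measured after seven days incubation then overnight dye step; 0% = bacteria only wells and 100% = bacteria with antibiotic; twin plates without the antibiotic show which effects depend on it; some results filed as inactive read as strong as hits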
Arbovirus inh: antivirals against arbovirus infection, primary screen, cell-based, full library, 10K replicate subset; arbovirus infection cell-based antiviral screen; inhibition, % at 10 µM; actives 0.37% (n = 200,000);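 active = inhibition from about 30%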;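 also: bluetongue infection of BSR cells; cell survival read as ATP light after 72 h; 0% = infected wells without compound and 100% = uninfected wells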
Arbovirus inh repeat: second read-out of Arbovirus inh, no call of its own (marks repeat the call); inhibition, %; measured here: 10K subset replicate screen; many hits read low in the repeat;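 first of two repeat runs on a subset; 0% = infected and 100% = uninfected wells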
* hit, by the source's call; ? = inconclusive; . = not tested or not shown.

SMILES	RecA intein inh	Mtb H37Rv	YopH inh	Mtb bLac sens	Arbovirus inh	others
COc1ccc(OCC(=O)N/N=C(\CCC(=O)O)c2cccs2)cc1	2.8	0%	.	-2	4
CC(C)=CCN1CCN(Cc2ccc(Sc3nncn3C)o2)CC1CCO (stereo not drawn)	0.3	2%	.	-1	3
Cc1cc(NC(=O)CC2(CC(=O)O)CCCC2)n(C)n1	-1.1	0%	.	1	.
CCc1ccc(CN2C(=O)CCC2(C)C(=O)NC2CCCC2)cc1 (stereo not drawn)	0.3	1%	-25	3	-4
CCN1CCc2c(sc(NC(=O)c3ccc(S(=O)(=O)N4CC(C)OC(C)C4)cc3)c2C(N)=O)C1 (stereo not drawn)	-2.1	.	.	3	.
O=C(O)CCCC(=O)Nc1ccccc1Oc1ccccc1	0.4	-11%	.	0	.
O=C(N/N=C\c1ccc(Cl)s1)c1cccs1	-0.9	14%	12	63	-6
NC(=O)CSc1nnc([C@@H](N)Cc2c[nH]c3ccccc23)o1	-1.2	-5%	-11	8	4
COc1ccc(NC(=S)Nc2ccccc2SC)c(OC)c1	2.2	1%	.	-5	-5
O=C(CN1CCN(S(=O)(=O)N2CCCCC2)CC1)Nc1ccc(Cl)c(Cl)c1	5.4	.	.	-5	.
Cc1c(Cl)c([N+](=O)[O-])nn1CCCC(=O)N1CCN(c2ccccc2)CC1	2.3	3%	-32	-3	-4
N#CC1(Cc2ccccc2Cl)c2ccccc2C=CN1C(=O)c1ccccc1 (stereo not drawn)	13	.	3	-8	-3
Cc1ccccc1CN(C)C(=O)c1ccc2ccccc2n1	1.6	.	.	-2	.
CCCCOC(=O)c1ccc(Nc2ncnc3nc[nH]c23)cc1	4.3	21%	-31	10	3
O=C1CCCN2N=C(SCC(=O)Nc3cccc(C(F)(F)F)c3)SC2=N1	1.1	.	.	2	.
Cc1ccc(C(C(=O)NC2CCCC2)N(Cc2ccc(F)cc2)C(=O)c2snc(C(N)=O)c2N)o1 (stereo not drawn)	4.0	.	.	-4	.
CCOc1ccc(CCNC(=O)c2ccc(S(=O)(=O)N3CCCC3)cc2)cc1OCC	2.8	.	.	-12	.
O=C(NCc1ccc(Cl)cc1)c1ccc2c(=O)n(CC3CCCO3)c(=S)[nH]c2c1 (stereo not drawn)	1.2	.	.	-2	.
CCc1nc2ccc(C(=O)NCCCN3CCN(c4ccc(F)cc4)CC3)cc2nc1CC	-2.3	.	.	7	.
CCOC(=O)N1CCc2c(sc3ncn(Cc4ccc(F)cc4)c(=O)c23)C1	3.2	1%	.	1	.
COc1ccc(S(=O)(=O)CCC(=O)NCc2ccc(C)o2)cc1	3.8	.	.	1	.
CCOC(=O)c1c(NC(=O)CSc2nnc(CNc3ccc(F)cc3)o2)sc(C(C)=O)c1C	0.4	-4%	-45	-4	-3
Cc1cc2c3c([nH]c2cc1S(=O)(=O)N1CCC2(CC1)OCCO2)CCCC3=O	-2.3	.	.	-4	.
Cc1nc(C)n(CC(=O)N2CCCC(C(=O)c3ccc(Cl)cc3C)C2)n1 (stereo not drawn)	1.3	3%	.	-2	7
Cn1c2c(c(=O)n(C)c1=O)C(NS(=O)(=O)c1ccc(Cl)cc1)(C(F)(F)F)C(=O)N2 (stereo not drawn)	-5.3	-3%	-7	2	4

Arranged by molar mass (smallest number first): three of the compounds above
SMILES	RecA intein inh	Mtb H37Rv	YopH inh	Mtb bLac sens	Arbovirus inh	others
CCCCOC(=O)c1ccc(Nc2ncnc3nc[nH]c23)cc1	4.3	21%	-31	10	3
COc1ccc(OCC(=O)N/N=C(\CCC(=O)O)c2cccs2)cc1	2.8	0%	.	-2	4
Cc1ccc(C(C(=O)NC2CCCC2)N(Cc2ccc(F)cc2)C(=O)c2snc(C(N)=O)c2N)o1 (stereo not drawn)	4.0	.	.	-4	.

(continued)
SMILES	RecA intein inh	Mtb H37Rv	YopH inh	Mtb bLac sens	Arbovirus inh	others
CN(C)c1nccc(Nc2ccccc2)c1C#N	-4.6	0%	-21	-3	-12
COCCNc1oc(-c2ccccc2Cl)nc1C#N	-0.6	11%	-7	-2	-7	Arbovirus inh repeat=-3
Cc1nc2ccc(NC(=O)c3ccc(Cl)c(NC(=O)c4cccs4)c3)cc2s1	7.1	22%	-5	95	-14
Cn1nnnc1SCC(=O)Nc1ccccc1N1CCOCC1	3.4	4%	-31	10	3
CCNC(=O)COC(=O)c1cc(-c2ccco2)nc2ccccc12	.	-11%	.	4	.
CC(=O)N/C(=C\c1ccccc1)C(=O)N1CCOCC1	-5.0	0%	.	0	1
O=c1oc2ccccc2c(Nc2cccc3cccnc23)c1[N+](=O)[O-]	2.9	19%	.	0	-8
CCC(NS(=O)(=O)c1ccc(C)cc1)C(=O)N1CCOCCOCCOCC1 (stereo not drawn)	0.0	.	.	0	.
COc1ccc(-c2[nH]c(-c3cc(OC)c4c(c3)OCO4)nc2-c2ccccc2)cc1	0.3	38%	-13	73	-2
Cc1cc(C)cc(OCC(=O)Nc2cnn(CCCC(=O)O)c2)c1	3.3	.	.	6	.
COC(=O)N1CCN(c2ccc(C)c(C)c2)CC1	2.0	-2%	.	-4	-1
Cc1ccc(C)c(CN2CCCN(C(=O)Cn3ncc4c3-c3ccccc3OC4)C2)c1	5.1	7%	-40	0	-25
COc1cc(O)c(C(CCN2CCCCC2)c2cc(OC)c(OC)c(OC)c2)c(OC)c1 (stereo not drawn)	-0.8	2%	.	-5	.
O=S(=O)(Nc1ccc(Cc2ccncc2)cc1)c1ccc(Cl)cc1	0.6	-8%	.	4	6
O=c1cc(C23CC4CC(CC(C4)C2)C3)[nH][nH]1	91*	-4%	-86	6	5
CCC(C)Nc1ncnc2c1cnn2Cc1ccc(Cl)cc1 (stereo not drawn)	0.1	18%	-29	-1	-8	Arbovirus inh repeat=1
CN(CC(=O)Nc1ccc(F)cc1)C(=O)COC(=O)Cc1c(F)cccc1Cl	-6.2	.	.	3	.
CCCCCCCC(=O)N1c2ccccc2NC(=O)C1CC(=O)Nc1ccc(C(=O)O)cc1 (stereo not drawn)	2.3	-7%	.	-8	.
COc1ccccc1CNC(=O)/C=C/C(=O)O	-3.0	-4%	.	0	.
CCOc1ccc(N(C)c2ccc(/C=C3/SC(=S)NC3=O)cc2)cc1	3.2	.	.	5	.
O=C(CN(Cc1cccs1)C(=O)CSc1nnc(COc2ccccc2)o1)NC1CCCC1	9.5	-6%	-44	1	-2
CCN(CC)CCN1C(=O)C(O)=C(C(=O)c2cc3cccc(OC)c3o2)C1c1cccs1 (stereo not drawn)	0.4	-3%	.	1	.
Cc1onc(-c2ccccc2Cl)c1C(=O)N1CCN(C/C=C/c2ccccc2)CC1	1.8	-12%	-29	18	-10
O=C(Cn1cnc2ccccc21)c1ccc(Cl)cc1	-0.2	.	.	4	.
CC1(C)CC(NC(=O)c2ccccc2)CC(C)(C)N1	-1.0	.	.	-9	.
(more compounds)
SMILES	RecA intein inh	Mtb H37Rv	YopH inh	Mtb bLac sens	Arbovirus inh	others
C/C(=N\NC(=O)c1cnccn1)c1ccc([N+](=O)[O-])cc1	0.4	-11%	.	-1	.
COc1ccc(/C=N/NC(=O)C2C(=O)NCC2c2ccccc2)c(OC)c1 (stereo not drawn)	-0.6	6%	-14	-6	-6
CCOC(=O)C1CCN(C(=S)Nc2cccc(C)c2)CC1	-0.9	-9%	-29	-2	5
COCCCNC(=O)CNC(=O)c1nn(-c2ccc(OC)cc2OC)c(=O)c2ccccc12	0.0	.	.	-2	.
CN1CCN(C(=O)CN(Cc2ccccc2)S(C)(=O)=O)CC1	.	-4%	-7	-13	6
CCO[C@@H]1OC(C(=O)NCc2nc3ccccc3[nH]2)=C[C@H](c2coc3ccccc3c2=O)[C@H]1CCCO	1.4	-2%	.	-5	.
Cc1nnc(SCc2ccccc2CSc2nnc(C)s2)s1	1.7	21%	.	-11	7
COc1ccccc1C1/C(=C(/O)c2ccc(C)cc2)C(=O)C(=O)N1Cc1ccco1 (stereo not drawn)	0.9	2%	-23	-2	2
COc1ccc(CN2C(=O)C(C)N(C(=O)c3c(F)cccc3F)c3ccccc32)cc1 (stereo not drawn)	2.6	.	.	4	.
Cc1cccc(NS(=O)(=O)c2cc(C(=O)N3CCc4ccccc4C3)ccc2Cl)c1C	13	9%	-9	8	-17
NC(=O)C1CCN(Cc2nc(-c3cccs3)no2)CC1	.	-8%	.	0	.
COc1ccccc1NC(=O)C(C/C=C(\C)Cl)C(C)=O (stereo not drawn)	1.8	-3%	-56	-1	-7
COc1ccc2c(c1)c1ncn(CCN3CCCC3)c(=O)c1n2C	0.2	-15%	-5	2	2
CCCC(c1nnnn1CS(=O)(=O)c1ccc(C)cc1)N1CCC(C(N)=O)CC1 (stereo not drawn)	1.0	.	.	-4	.
CN1C(=O)c2cccc(NC(=O)C3CCCCC3)c2C1=O	-0.6	5%	5	-4	0	Arbovirus inh repeat=0
COc1ccc(CNC(=O)[C@@H](NC(=O)C2CCN(C(=O)[C@@H](N)CC(C)C)CC2)C(C)C)cc1	9.2	.	.	-2	.
CCN1CCN(c2nc(-c3ccccc3Cl)nc3ccccc23)CC1	-1.8	.	.	?	.
Cc1cc(Cl)ccc1NC(=O)CN1C(=O)CSc2ccc(S(=O)(=O)N3CCOCC3)cc21	-0.2	.	.	5	.
COCCCNC(=O)C1CCN(S(=O)(=O)c2c(C)noc2/C=C\c2ccc(OC)cc2)CC1	.	4%	5	?	-11
C=CCNC(=S)NNC(=O)c1ccccc1OCC	4.2	6%	.	-8	-2
CC1(C)Cc2ccccc2-c2nnc(-c3ccc4ccccc4n3)n21	.	1%	41	-2	-9
CCCCN(C)C(=O)c1nc2ccccn2c1CNC1CCC1	-0.6	3%	.	-1	8
C#CCCOC(=O)N1C2=NC(C(=O)OC)=C(C(=O)OC)[C@@H]3N(C)c4ccccc4[C@]23C[C@H]1CO	1.1	-4%	.	-1	.
COc1ccc(OCCC(=O)OCC(=O)Nc2ccc(Br)cc2)cc1	-1.9	-1%	-1	12	-2
O=C(Nc1cccc(-c2nnc(-c3ccccc3)o2)c1)c1ccco1	2.6	-2%	.	-4	.
Carrying on:
SMILES	RecA intein inh	Mtb H37Rv	YopH inh	Mtb bLac sens	Arbovirus inh	others
CC(C)CC(=O)N=Nc1c(O)[nH]c2ccccc12	1.0	-2%	.	-6	13
COc1cc(NC(=O)c2cc(C(C)C)on2)c(OC)cc1Cl	1.6	-2%	-27	-3	-1
Cc1cc(C)c(S(=O)(=O)N2CCCCC2CCNC(=O)C(=O)NCc2cccnc2)c(C)c1 (stereo not drawn)	0.8	.	.	-12	.
O=C(NNc1ccc([N+](=O)[O-])cc1)C1C2CCCCC21 (stereo not drawn)	-1.0	?	-19	93	5
O=C(O)c1ccc(/C=N/Nc2ncc(Cl)cc2Cl)cc1	-6.4	.	.	1	.
O=C(COc1nc2ccccc2nc1N1CCOCC1)Nc1ccc(S(=O)(=O)N2CCCC2)cc1	-0.2	7%	-12	5	14
CC(=O)Nc1cc2c(cc1C(C)=O)OCCO2	3.1	-6%	-64	2	10
CCOC(=O)NC(=S)Nc1ccc(OC)cc1	-1.7	4%	.	-6	2
CCC1=[N+](C)CCn2c(C)ccc21	0.2	-5%	11	-7	4
c1ccc(-n2ncc3c(NCCN4CCCCC4)ncnc32)cc1	0.0	-1%	-42	-13	-22
O=C(O)CCCCCNC(=O)c1ccc(C(=O)NCCCCCC(=O)O)cc1	-5.2	-6%	.	2	.
CC(=O)NC1=NC(=O)CS1	0.0	0%	-50	-5	0
CCOC(=O)c1c[nH]c(=S)n1C	0.4	-5%	.	-6	.
CCCN(CCC)C(=O)c1oc2ccccc2c1NC(=O)Cc1cccc(OC)c1	6.4	.	.	8	.
Cc1c(/C=C(\C#N)c2nn(-c3ccccc3)c(N)c2C#N)c2ccccc2n1Cc1ccc(F)cc1	5.7	.	-10	.	2
CC(C(=O)NNS(=O)(=O)c1cccc(C(F)(F)F)c1)n1nnc(N2CCOCC2)n1 (stereo not drawn)	.	-10%	.	9	.
O=C(CSc1nnc(-c2ccccc2Cl)o1)Nc1ccccn1	1.3	1%	.	11	-9
Cc1cc2ccccn2c1C(=O)c1nc(N2CCOCC2)ncc1Cl	6.2	1%	-34	2	-2
CC(=O)c1ccc(NC(=O)CSc2nnc3ccc(-c4ccccn4)nn23)cc1	-13	.	.	-11	.
Cc1ccc(NC(=O)CN2C(=O)COc3ccc(S(=O)(=O)N4CCOCC4)cc32)cc1N(C)C	-0.6	.	.	2	.
CCOc1cc(/C=C2/SC(=S)N(Cc3ccccc3)C2=O)ccc1O	33*	.	.	8	.

No new results follow: an excerpt of the list.
SMILES	RecA intein inh	Mtb H37Rv	YopH inh	Mtb bLac sens	Arbovirus inh	others
CC(C)CC(=O)N=Nc1c(O)[nH]c2ccccc12	1.0	-2%	.	-6	13
COc1cc(NC(=O)c2cc(C(C)C)on2)c(OC)cc1Cl	1.6	-2%	-27	-3	-1

Some of the compounds tested (hit frequency here may not be typical).
